# ugtP null kill: compounds lethal to S. aureus RN4220 ugtP deletion mutant. OD600 growth, 16 h; some inactives read as strong as hits. 0.54% of 330,000 active. AID 1259309. growth inhibition, % (no concentration beside the values);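 active = z-score under -3 and OD600 up to 0.15 on both plates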;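 also: plate controls were untreated wells for no effect and antibiotic for full effect; wells of about 80 µL received 100 nL stock; the first replicate is given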
# BJeLR lethal: kills HRASV12-expressing BJeLR cells; BJeLR (HRASV12) viability, CellTiter-Glo ATP luminescence, 48 h; reference of the scale not given here; inhibition, % (test concentration not listed); 0.17% of 300,000 active; AID 1554;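 active = replicate mean above 50%; inconclusive = above 50% but judged a plate artefact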;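 also: 50 nL library stock added to about 25 µL; numbers are from one replicate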
# Mtb hypoxia inh: Mtb hypoxia fluorescent reporter inhibition. M. tuberculosis hypoxia-regulated fluorescent reporter, fluorescence. fluorescence inhibition, % (concentration not given with the values). 0.1% of 300,000 active;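 active = 35 to 45% if threefold the growth effect, above 45% if 1.5-fold the growth effect; inactive = the rest, general growth blockers included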;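 also: wells of about 50 µL received 100 nL stock; 0% = vehicle wells and 100% = reference inhibitor wells; whole bacteria with a GFP reporter of the hypoxia response; strong numbers were not always called active; many hits fall short of the cut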
# Bead autofluor: counter-screen for toxin protease inhibitors: compound fluorescence | compound autofluorescence counterscreen, microsphere flow cytometry; hits give high values | fluorescence intensity (no concentration beside the values) | 3.1% of 360,000 active | AID 624483;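 active = at least 3 SD above the mean of all compounds, about 16000 in these data; inconclusive = too few beads counted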;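 also: 100 nL of 1 mM stock went into each well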
# PrP 5UTR inh: suppresses PrP 5' UTR mRNA reporter expression. cell-based PrP 5' UTR mRNA reporter, plate reader. inhibition, % (test concentration not listed). 0.35% of 340,000 active. AID 488862;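 active = every replicate at 50% or more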;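 also: 0 = median of the neutral control wells; tested in H4 reporter cells; numbers are from one replicate; inactives centre near -14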
# RN4220 kill: kills Staphylococcus aureus RN4220; S. aureus RN4220 growth, OD600, 16 h; inhibition, % (no concentration beside the values); 0.33% of 330,000 active; AID 1259311;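 active = z-score of -3 or lower and OD600 up to 0.18 on both plates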;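 also: plate controls were untreated cells for no effect and reference antibiotic for full effect; stock transfer was 100 nL into about 80 µL; one replicate is shown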
# Mtb hypoxia inh growth: second read-out of Mtb hypoxia inh, no call of its own (marks repeat the call); growth inhibition, %; measured here: M. tuberculosis growth (absorbance);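 0% = vehicle and 100% = reference antibiotic; read after six days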
# Numbers without * were called inactive; u = inconclusive; x = no result given; & = joins results of further samples. Not a hit list; about 4.1% have a hit in one of these screens.
# Each structure is followed by: ugtP null kill	BJeLR lethal	Mtb hypoxia inh	Mtb hypoxia inh growth	Bead autofluor	PrP 5UTR inh	RN4220 kill
> COc1cc(C)cc(OC)c1OCC(=O)Nc1cc(C)on1
  0	x	9	-7	2833	-17	2.6
> Cc1cnc(C(=O)Nc2ccc(F)cc2)cn1
  5	15	4	9	21955*	-61	0.7
> COc1cc(/C=N/n2c(-c3ccccc3)n[nH]c2=S)ccc1O
  x	9	x	x	4055	-22	x
> CCc1c(C)c2cc(Cl)c(O)c(CN3CCCCC3)c2oc1=O
  -5	8	2	13	5391	-85	6.2
> Cc1occc1C(=O)NN=Cc1ccc(Cl)c([N+](=O)[O-])c1
  -8	x	3	2	x	x	-0.3
> O=c1c(C=NCc2ccccc2)c(NCc2ccccc2)nc2ccccn12
  11	1	23	15	3337	-35	6.0
> O=C(C1=CC(c2ccc(C(F)(F)F)cc2)CC(OCc2ccc(CO)cc2)O1)N1CCOCC1 (stereo unspecified)
  -1&-7	x	-8&6	8&10	x	x	0.9&4.4
> CCOC(=O)C(C)Sc1nnc(-c2ccccc2O)n1Cc1ccccc1 (stereo unspecified)
  -5	3	0	8	3702	-41	7.8
> COc1cccc(C=NN=C(N)c2nonc2N)c1O
  0	x	0	-2	x	x	4.0
> O=C1CN(C(=O)c2ccccc2F)C(c2ccc(F)cc2)c2cc(Br)ccc2N1 (stereo unspecified)
  -4	-5	3	-1	3874	-25	0.8
> CNc1snc(C)c1C(=O)OCC(=O)c1ccc(Cl)cc1
  -5	x	0	4	5849	x	3.5
> O=C(Cc1ccccc1Cl)Nc1cccnc1
  1	-6	2	2	2272	-11	5.7
> CCC1=NN2C(=N)/C(=C\c3cccn3-c3ccc(Br)cc3)C(=O)N=C2S1
  18	7	0	-5	2686	-32	-0.9
> Clc1ccc(OCCn2ccnc2)c(Cl)c1
  10	16	3	1	8586	-21	6.5
> COc1ccc(-n2ncc3c2CC(C)(C)CC3NC(=O)CCN2CCCC2=O)cc1 (stereo unspecified)
  3	7	1	2	x	-3	2.1
> O=C(COC(=O)c1ccccc1)NC1CCCC1
  18	1	3	4	3436	x	4.6
> Cc1cc2cc(CNC(=O)c3ccc4c(c3)OCO4)ccc2[nH]1
  6	-6	11	4	2941	-24	5.7
> COCCN(Cc1cn(C)nc1-c1ccc(Oc2ccccc2)cc1)C(C)C
  6	13	-15	5	4079	-7	1.2
> O=C(CC1CCS(=O)(=O)C1)NC1CCCCC1 (stereo unspecified)
  4	12	x	x	4483	-7	1.1
> CCOc1ccc(NS(=O)(=O)c2cc(C(=O)N3CCCC3)ccc2Cl)cc1
  0	-5	-2	8	5561	-16	-0.6
> O=c1cc(CN2CCN(CCO)CC2)c2cc3c(cc2o1)CCC3
  -4	-8	14	8	3783	-13	0.8
> COc1ccc(NS(=O)(=O)c2ccc(NC(=O)CCNS(=O)(=O)c3ccc(C)cc3)cc2)cc1
  1	7	2	5	9344	-1	4.1
> CC1CCN(c2ccc(C(F)(F)F)cc2N)CC1
  4	0	0	2	3232	-17	8.6
> Cc1cc(C)cc(C(=O)NCC(=O)OCc2c(C)noc2C)c1
  20	5	15	1	2561	-33	4.6
> COC(=O)/C(C#N)=C/c1c(Oc2cc(C)cc(C)c2)nc2c(C)cccn2c1=O
  -1	1	14	7	8835	-31	8.0
> Cc1ccc(-n2ncc3c(=O)[nH]c(SCC(=O)NCC4CCCO4)nc32)cc1 (stereo unspecified)
  2	x	11	-1	x	-21	4.1
> CC(NC(=O)C(C)(C)C)C(c1cccs1)N1CCN(Cc2ccccc2)CC1 (stereo unspecified)
  -6	5	4	0	4550	-15	3.9
> CC(=NNc1nc(-c2ccccc2O)nc2ccccc12)c1ccccc1
  -19	x	11	9	x	x	-5.1
> COc1ccc(CCNS(=O)(=O)CCNC(=O)c2ccc3c(c2)OCO3)cc1OC
  9	-1	-3	5	u	-15	2.0
> O=C1OC(/C(=C\Nc2cc(Cl)ccc2O)[N+](=O)[O-])c2ccccc21 (stereo unspecified)
  4	-3	6	-1	2634	-15	7.4
> CCCCCOc1ccc(CSC(=N)N)cc1[N+](=O)[O-]
  52	2	x	x	2737	-27	0.0
> Cn1nnnc1SCc1ccc(Cl)cc1
  8	3	15	8	4477	-27	-1.8
> Cc1no[n+]([O-])c1COc1ccccc1/C=N/n1nnnc1N
  x	10	x	x	2012	-85	x
> COc1cc(C(C[N+](=O)[O-])c2c(C)cc3ccccn23)ccc1O (stereo unspecified)
  -13	-1	-4	4	5209	-16	6.3

# Some of the entries above, reformatted:
compound	ugtP null kill	BJeLR lethal	Mtb hypoxia inh	Mtb hypoxia inh growth	Bead autofluor	PrP 5UTR inh	RN4220 kill
COCCN(Cc1cn(C)nc1-c1ccc(Oc2ccccc2)cc1)C(C)C	6	13	-15	5	4079	-7	1.2
O=C(CC1CCS(=O)(=O)C1)NC1CCCCC1 (stereo unspecified)	4	12	x	x	4483	-7	1.1
CCOc1ccc(NS(=O)(=O)c2cc(C(=O)N3CCCC3)ccc2Cl)cc1	0	-5	-2	8	5561	-16	-0.6
O=c1cc(CN2CCN(CCO)CC2)c2cc3c(cc2o1)CCC3	-4	-8	14	8	3783	-13	0.8
COc1ccc(NS(=O)(=O)c2ccc(NC(=O)CCNS(=O)(=O)c3ccc(C)cc3)cc2)cc1	1	7	2	5	9344	-1	4.1
CC1CCN(c2ccc(C(F)(F)F)cc2N)CC1	4	0	0	2	3232	-17	8.6
Cc1cc(C)cc(C(=O)NCC(=O)OCc2c(C)noc2C)c1	20	5	15	1	2561	-33	4.6
COC(=O)/C(C#N)=C/c1c(Oc2cc(C)cc(C)c2)nc2c(C)cccn2c1=O	-1	1	14	7	8835	-31	8.0
Cc1ccc(-n2ncc3c(=O)[nH]c(SCC(=O)NCC4CCCO4)nc32)cc1 (stereo unspecified)	2	x	11	-1	x	-21	4.1
CC(NC(=O)C(C)(C)C)C(c1cccs1)N1CCN(Cc2ccccc2)CC1 (stereo unspecified)	-6	5	4	0	4550	-15	3.9
CC(=NNc1nc(-c2ccccc2O)nc2ccccc12)c1ccccc1	-19	x	11	9	x	x	-5.1
COc1ccc(CCNS(=O)(=O)CCNC(=O)c2ccc3c(c2)OCO3)cc1OC	9	-1	-3	5	u	-15	2.0
O=C1OC(/C(=C\Nc2cc(Cl)ccc2O)[N+](=O)[O-])c2ccccc21 (stereo unspecified)	4	-3	6	-1	2634	-15	7.4
CCCCCOc1ccc(CSC(=N)N)cc1[N+](=O)[O-]	52	2	x	x	2737	-27	0.0
Cn1nnnc1SCc1ccc(Cl)cc1	8	3	15	8	4477	-27	-1.8
Cc1no[n+]([O-])c1COc1ccccc1/C=N/n1nnnc1N	x	10	x	x	2012	-85	x
COc1cc(C(C[N+](=O)[O-])c2c(C)cc3ccccn23)ccc1O (stereo unspecified)	-13	-1	-4	4	5209	-16	6.3
